Compound activity: PubChem BioAssay, National Center for Advancing Translational Sciences (NCATS)
miR-21 reporter – miR-21 reporter, rising signal | AID 2288 | 340,000 tested, under 10 active | Potency, µM (series often up to 38.3 µM), for the others: at the top dose reporter change, positive = more light | HeLa miR-21 FLuc reporter, luciferase, 48 h; active = well fitted rising curve with a large enough effect; inconclusive = small, poorly fitted or top-dose-only effect; inactive = no such curve, though single readings can be large or run the other way;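 further: % of control where 0% means no effect; miR-21 action dims this reporter so a rising signal means less miR-21 action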
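Compounds were titrated across several concentrations (up to approximately 40 uM) and incubated 48 hours with HeLa miR-21-FLuc reporter cells (miR-21 target sequence downstream of FLuc, endogenous miR-21). Readout was firefly luciferase luminescence after lytic detection reagent.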
* = called active by the depositor; ? = inconclusive; [ ] = dose if it differs, or a comment.

SMILES | miR-21 reporter
CC(C)C12CN3CC(C(C)C)(CN(C1)C3c1ccc(OCc3ccccc3)cc1)C2=O (stereo not given) | 6%
Cc1ccc(OCC(=O)Nc2ccc(Cl)c(-c3nc4ncccc4o3)c2)cc1C | -8%
COc1ccc(Cc2nnc(C(=O)NCCCN3CCN(c4ccccc4F)CC3)o2)cc1OC | ?
Nc1c(C(=O)Nc2ccc(OC(F)(F)F)cc2)sc2nc(-c3ccncc3)ccc12 | -1%
Cc1cccc(-n2nc(C)c(C(=O)Nc3cc(C)ccc3C)c2-n2cccc2)c1 | 19%
O=C(Nc1ccc(-c2nc3ccccc3o2)c(O)c1)c1cc(Cl)ccc1Cl | -41%
CC(C)Oc1ccc(C(=O)N2CCC(c3nc4ccccc4o3)CC2)cc1 | 19%
CCc1cccc(NC(=O)CN(c2ccc(C)cc2)S(=O)(=O)c2cccs2)c1 | 18%
COc1cccc(NC(=O)N2CCN3CCCCC3C2)c1 (stereo not given) | -17%
COc1cccc(C(=O)Nc2nc3nc(C)c(C)c(=O)n3[nH]2)c1 | 2%
O=C(CCCn1ccc2cc(S(=O)(=O)N3CCCC3)ccc21)NCc1ccc(Cl)cc1 | ?
Cc1ccc(-c2nn(CC(=O)NC3CCCC3)c3c2cnc2ccc(F)cc23)cc1C | -27%
COc1ccc2c(c1)CCc1c(C(=O)Nc3cc(C)ccc3O)noc1-2 | -50%
Cc1ccc(C)c(N2CCN(S(=O)(=O)c3c(C(=O)N4CCC(C)CC4)c(C)n(C)c3C)CC2)c1 | 17%
COc1ccc2oc(=O)cc(CN3CCN(c4ccccc4OC)CC3)c2c1 | 11%
CCCc1nn2c(=O)cc(COC(=O)c3ccc4c(c3)OCO4)nc2s1 | -2%
CCc1ccc(NC(=O)NCCc2c(C)nn(C)c2C)cc1 | -42%
Cc1cccc(NC(=O)CSc2nnc(CNC(=O)c3c(F)cccc3Cl)o2)c1C | 2%
CCOc1ccc(CN2C(=O)c3ccccc3Sc3ccc(C(=O)O)cc32)cc1 | 18%
Cc1ccc(C2c3c(-c4cc(C)ccc4O)n[nH]c3C(=O)N2Cc2ccco2)cc1 (stereo not given) | 23%
COc1ccccc1CNC(=O)c1c[nH]c2ccc(S(=O)(=O)Nc3cc(C)cc(C)c3)cc2c1=O | 18%
COc1cccc(NC(=O)C2CCCN(S(=O)(=O)c3ccc4[nH]c(=O)ccc4c3)C2)c1 (stereo not given) | 1%
COc1ccc(N2CCN(C(=O)c3ccc4c(c3)NC(=O)C(CSCc3cccc(F)c3)N4)CC2)cc1 (stereo not given) | 6%
CCOc1cc(-c2ccc(OC(=O)c3ccccc3Cl)c(OC)c2)cc(=O)c2c(C)oc(C)c12 | -1%
Cc1nc(SC(C)C(=O)Nc2ccccc2Cl)cc(-c2ccccc2)n1 (stereo not given) | 18%
SMILES | miR-21 reporter
COc1cc([C@@H]2Nc3c(F)cccc3[C@@H]3C=CC[C@@H]32)cc(Br)c1OC | 0%
COc1ccc(NC(=O)Cn2ncc3c4ccccc4n(Cc4ccccc4)c3c2=O)cc1OC | 3%
COc1ccccc1Cc1nc2ccccc2nc1SCC(=O)N1CCCCC1 | -6%
CC(C)c1ccc(NC(=O)CCS(=O)(=O)c2ccc3c(c2)CC(=O)N3C)cc1 | 1%
COC(=O)c1cccnc1-n1c(=O)c2cccnc2n(CC(=O)Nc2ccc(C)cc2C)c1=O | 19%
O=C(COc1ccc(Cl)cc1)Nc1ccc(C(=O)OCc2cc(=O)n3ccsc3n2)cc1 | 16%
CSCCC(NS(=O)(=O)c1cccs1)C(=O)Nc1ccc(C)c(Cl)c1 (stereo not given) | -1%
CCCOc1ccc(C(=O)Nc2cc(-c3nc4ccccc4[nH]3)ccc2C)cc1 | 4%
O=C(Nc1ccc(Cl)cc1)c1cnn2c1NC(c1ccccc1)=CC2c1ccccc1 (stereo not given) | 20%
CCCOc1cccc(C(=O)Nc2cccc(NC(=O)c3ccc(Cl)cc3Cl)c2)c1 | -3%
COC(=O)c1ccccc1NC(=O)c1ccc(COc2ccccc2Cl)o1 | -3%
COC(=O)C1CCN(S(=O)(=O)c2ccc(N3CCCCS3(=O)=O)cc2)CC1 | 11%
COC(=O)c1ccc(Cl)cc1NC(=O)N1CCC(CN2CCCC2)CC1 | -4%
CCOc1cccc(C2c3[nH]c4ccccc4c3CCN2C(=O)CSc2ccccc2)c1 (stereo not given) | 3%
Cc1ccc2[nH]c(=O)c(CN(C(=O)c3cccc(Cl)c3)C(C)(C)C)cc2c1 | -1%
CCOc1ccc(C(=O)c2cn(CC(=O)Nc3ccc(Cl)cc3)c3cc4c(cc3c2=O)OCCO4)cc1 | 16%
COc1ccc(CNC(=O)CCc2nnc3n(CC(C)C)c(=O)c4ccccc4n23)cc1 | 4%
Cc1ccc(C)c(OC(=O)CSc2nnc(CNC(=O)c3ccccc3)o2)c1 | 15%
COc1ccc(CN2C(=O)N(c3cccc(C)c3)C(=O)C2CC(=O)Nc2ccc(F)cc2)cc1OC (stereo not given) | -5%
CCc1ccc(NC(=O)Cn2nnc(C(=O)Nc3cc(C)ccc3OC)c2N)cc1 | -10%
CC1CCN(c2nnc(-n3cccc3CNc3cccc(F)c3)s2)CC1 | -30%
O=C(N/N=C/c1ccccn1)c1ccc(Cl)c(Cl)c1 | 2%
Fc1ccc(-n2ncc3c(Nc4ccc5c(c4)OCCO5)ncnc32)cc1 | -13%
CCOC(=O)c1ccc(N2C(=O)c3[nH]nc(-c4ccccc4)c3C2c2ccc(CC)cc2)cc1 (stereo not given) | ?
CN(C)C=NC(=O)c1cc2c(n(-c3ccccc3)c1=O)CC(C)(C)CC2=O | 3%
SMILES | miR-21 reporter
CCCCn1c(C)cc2c(c1=O)[C@H]1O[C@](CCCCN3C(=O)c4ccccc4C3=O)(Cc3ccccc31)O2 | -1%[7.66 µM]
CC(=O)N1CCCc2ccc(NS(=O)(=O)c3ccc(F)cc3F)cc21 | 9%
O=C(NCC(c1ccc2c(c1)OCO2)N1CCOCC1)C(=O)Nc1ccccc1 (stereo not given) | -1%
COc1cccc(CNC(=O)C(=O)NCC(c2ccc3c(c2)OCO3)N2CCOCC2)c1 (stereo not given) | -3%
Cc1ccc(S(=O)(=O)n2nc(-c3ccc(Cl)cc3)nc2NCc2ccc(F)cc2)cc1 | -16%
COc1ccccc1-c1noc(-c2ccc(N3CCC(C)CC3)c([N+](=O)[O-])c2)n1 | -7%
O=C(Nc1ccc(S(=O)(=O)N2CCC(c3nc4ccccc4s3)CC2)cc1)c1ccccc1 | -9%
CN(CC(=O)NCc1ccc(Cl)cc1)S(=O)(=O)c1ccc2c(c1)c(=O)n(C)c(=O)n2C | 0%
Cc1ccc(Cl)cc1NCc1nnc2n1CCCCC2 | 3%
CCC(=O)c1cc2c(cc1NC(=O)c1ccccc1F)OCCO2 | 0%
CCCC(CCC)C(=O)Nc1cccc(-c2nc3cccnc3s2)c1 | -3%
COc1ccc(-n2c(SCC(=O)N3CCc4ccccc43)nc3c([nH]c4ccccc43)c2=O)cc1 | 0%
COc1cc(F)c(S(=O)(=O)Nc2c(C)n(C)n(-c3ccccc3)c2=O)cc1OC | 3%
COc1ccc(CNC(=O)c2ccc3nc(CCc4ccccc4)oc3c2)cc1OC | 27%
CCOC(=O)c1ccc(NC(=O)CSc2c(C(C)C)cnc3c2c(=O)n(C)c(=O)n3C)cc1 | 0%
COc1cc(Cl)c(NS(=O)(=O)c2ccc3c(c2)CC(C)N3C(=O)C2CCC2)c(OC)c1 (stereo not given) | ?
CCOC(=O)c1c(C)[nH]c(C)c1S(=O)(=O)N1CCCC(C(=O)N2CCN(c3cc(C)ccc3C)CC2)C1 (stereo not given) | 28%
O=S(=O)(NCC(c1ccco1)S(=O)(=O)c1ccccc1)c1ccccc1 (stereo not given) | -6%
Oc1ccccc1-c1nc(/C=C/c2ccccc2Cl)nn1-c1ccccc1 | -26%
CCOc1ccc(S(=O)(=O)N(CC(=O)Nc2ccc3c(c2)OCO3)c2ccccc2)cc1 | -6%
COc1cc2c(c(OC)c1)C(c1cccc(F)c1F)CC(=O)N2 (stereo not given) | -3%
CC1CCCN(c2c(S(=O)(=O)c3ccccc3)cnc3ccc(Cl)cc23)C1 (stereo not given) | -3%
CC(C)c1ccc(Cn2c(COc3ccccc3)nc3ccccc32)cc1 | -28%
CCS(=O)(=O)c1nc(S(=O)(=O)c2ccc(C)cc2)c(NCCCOC)s1 | -2%
Cc1ccc(C)c(NC(=O)CN2CCN(C3CCCCC3)C(=O)C2=O)c1 | -1%

Part of the list above, with tabs.
SMILES	miR-21 reporter
COc1ccc(-n2c(SCC(=O)N3CCc4ccccc43)nc3c([nH]c4ccccc43)c2=O)cc1	0%
Cc1ccc(C)c(NC(=O)CN2CCN(C3CCCCC3)C(=O)C2=O)c1	-1%
CC(=O)N1CCCc2ccc(NS(=O)(=O)c3ccc(F)cc3F)cc21	9%
COc1cc(Cl)c(NS(=O)(=O)c2ccc3c(c2)CC(C)N3C(=O)C2CCC2)c(OC)c1 (stereo not given)	?
O=C(Nc1ccc(S(=O)(=O)N2CCC(c3nc4ccccc4s3)CC2)cc1)c1ccccc1	-9%

(more compounds)
SMILES | miR-21 reporter
CCOc1ccc(NC(=O)C2CC(=O)N(c3ccc(C(C)C)cc3)C2)cc1 (stereo not given) | 3%
c1ccc2c(c1)ncc1nncn12 | 2%
O=C(Nc1ccccc1Cl)c1ccc(F)c(S(=O)(=O)NCc2ccc(Cl)c(Cl)c2)c1 | 2%
COc1cc(S(=O)(=O)NCCc2c(C)[nH]c3ccc(C)cc23)ccc1Br | -2%
CC(C)c1nc2ccc(C(=O)NCc3ccc(N(C)C)cc3)cc2o1 | 0%
Cc1ccc(C)c(S(=O)(=O)c2nnn3c2nc(Nc2ccc(C)c(C)c2)c2ccccc23)c1 | 0%
O=C(NCc1ccccc1Br)c1ccc2c(c1)nc1n2CCOC1 | -14%
Cc1ccc(C(=O)c2c(N)c(C(=O)Nc3ccccc3Cl)c3ccccn23)cc1 | -2%
Cc1c(C(=O)NCc2ccccc2Cl)sc2nc[nH]c(=O)c12 | -29%
Cc1ccc(CN(Cc2ccco2)C(=O)c2ccccc2Cl)o1 | 22%
COc1ccccc1CNC(=O)C1CCCN(c2nnc(-n3c(C)ccc3C)s2)C1 (stereo not given) | 0%
COc1ccc(C(=O)c2sc(Nc3cc(Cl)ccc3C)nc2N)cc1OC | -16%
Cc1ccc(CNC(=O)c2c3c(nc4ccccc24)C(=O)N(C2CCCCC2)C3)cc1 | 15%
O=C(CNC(=O)c1ccc(Cl)cc1)OCc1cc(=O)n2nc(C3CC3)sc2n1 | -3%
CCc1ccc(OCc2nc(-c3ccc(-n4cccc4)cc3)no2)cc1 | -6%
Cc1cccc(N2CCN(C(=O)CCNS(=O)(=O)c3ccc4c(c3)CCN4C(=O)C3CC3)CC2)c1C | 17%
COc1ccc(CCNC(=O)c2ccc(CSCc3ccc(C)cc3)o2)cc1OC | 15%
CCOc1ccccc1NC(=O)C1CCN(S(=O)(=O)c2cc(Br)cc3c2N(C(C)=O)CC3)CC1 | -4%
Cc1cccc(-c2nnn3c2nc(NCCc2ccc(S(N)(=O)=O)cc2)c2cc(Cl)ccc23)c1 | -11%
CCn1c(=O)c2cc(C(=O)N(CC(C)C)CC(C)C)sc2c2ccccc21 | 2%
CCOc1ccc(CNC(=O)C(C)n2ncn3cccc3c2=O)cc1 (stereo not given) | -10%
N#C/C(=C\c1ccc(-c2ccc(F)cc2F)o1)c1nc2ccccc2[nH]1 | -18%
COc1ccc(-c2onc(C)c2C)cc1S(=O)(=O)N(C)Cc1ccco1 | -1%
COc1ccc2c(c1)cc1c(=O)n(CC(=O)NCCCc3ccccc3)nc(C)n12 | 0%
COc1cccc(-n2c(SCC(=O)Nc3nnc(C)s3)nc3c([nH]c4ccccc43)c2=O)c1 | 4%

Retrieved by compound from the entries so far:
SMILES | miR-21 reporter
CCOC(=O)c1ccc(N2C(=O)c3[nH]nc(-c4ccccc4)c3C2c2ccc(CC)cc2)cc1 (stereo not given) | ?
CC(C)Oc1ccc(C(=O)N2CCC(c3nc4ccccc4o3)CC2)cc1 | 19%
COc1ccc(NC(=O)Cn2ncc3c4ccccc4n(Cc4ccccc4)c3c2=O)cc1OC | 3%
COc1cc([C@@H]2Nc3c(F)cccc3[C@@H]3C=CC[C@@H]32)cc(Br)c1OC | 0%
COc1ccc2oc(=O)cc(CN3CCN(c4ccccc4OC)CC3)c2c1 | 11%
Cc1nc(SC(C)C(=O)Nc2ccccc2Cl)cc(-c2ccccc2)n1 (stereo not given) | 18%

Arranged by value in miR-21 reporter (high to low): 3 of the compounds above.
Molecule,miR-21 reporter
Cc1ccc(CN(Cc2ccco2)C(=O)c2ccccc2Cl)o1,22%
COc1ccc(CCNC(=O)c2ccc(CSCc3ccc(C)cc3)o2)cc1OC,15%
COc1ccc(-c2onc(C)c2C)cc1S(=O)(=O)N(C)Cc1ccco1,-1%

Other compounds:
SMILES | miR-21 reporter
COc1ccc(-c2onc(C)c2C)cc1S(=O)(=O)NCC1CCN(Cc2cccc(F)c2)CC1 | 10%
CNC(=O)c1ccc(NC(=O)COc2ccc(-c3nn(C)c(=O)c4ccccc34)cc2)cc1 | -13%
COc1ccccc1CNC(=O)C(=O)NCC(c1cccs1)S(=O)(=O)c1cccs1 (stereo not given) | 12%
CCOC(=O)c1c(C)[nH]c(C)c1S(=O)(=O)N(C)CC(=O)Nc1cccc(Cl)c1C | 1%
CCCOc1ccc(CNC(=O)c2[nH]c3cc(OC)ccc3c2Sc2ccccc2)cc1 | 25%
Cc1ccc(-n2c(CCC(=O)O)ccc2-c2cccs2)cc1Cl | ?

Only part of the results is shown; the hit share may differ from the screen's.
